Rango complex inh = qHTS Assay for Inhibitors of Rango (Ran-regulated importin-beta cargo) - Importin beta complex formation; Rango CFP/YFP FRET sensor + importin beta, 45 min; Potency, µM (titrated, usually from 92.2 µM), inactives show at the highest dose inhibition of complex formation; Importin subunit beta-1 (Homo sapiens), Q14974; 340,000 compounds, 0.031% hits; active = rising FRET ratio curve, often small or poorly fitted; inconclusive = mostly compound fluorescence or quenching in the first reads; inactive = flat curves in all reads;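 further: potency means the concentration at half of the fitted maximal effect; 0% = DMSO wells and 100% = buffer wells lacking importin beta; nearly all actives have a fitted effect of over 15% in size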
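FRET biosensor Rango (snurportin 1 IBB between N-terminal EYFP and C-terminal Cerulean), 50 nM in PBS/1 mM DTT/0.02% Tween-20/0.1% BSA, preincubated 5 min RT with compound; 0.125 microM importin beta added, 45 min RT, CFP/YFP FRET ratio read.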
Rango dissoc inh = qHTS Assay for Inhibitors of RanGTP induced Rango (Ran-regulated importin-beta cargo) - Importin beta complex dissociation. Snurportin-1 (Homo sapiens) + GTP-binding nuclear protein Ran (Homo sapiens) + Importin …. Biochemical FRET Rango-importin beta, RanGTP-induced dissociation. Potency, µM (top dose mostly 46.1 µM), for the others: at the highest dose activity change, negative = inhibition. 340,000 compounds, 0.071% hits. AID 540253, 2011; active means falling FRET ratio curve, often poorly fitted, with flat reads before Ran was added; inconclusive means other falling curves, or compound fluorescence or quenching; inactive means flat or rising ratio curve;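 further: potency means the concentration at half of the fitted maximal effect; % of control where 0% means no effect; nearly all actives have a fitted effect of over 45% in size; -100% = wells without RanGTP and RCC1; the record marks most hits as doubtful in a second field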
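Rango/importin beta premix (0.1/0.25 uM final), PBS + 1 mM DTT + 0.02% Tween-20 + 0.1% BSA; cpd 5 min RT; FRET pre-read; + RanGTP-RCC1 (0.6 uM Ran, 2 mM GTP, 0.2 uM RCC1); 45 min RT; FRET post-read, ex 430, em 486/530 nm.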
GLA inh pH 4.5 = qHTS Assay for Inhibitors of Human alpha-Galactosidase at pH 4.5; Alpha-galactosidase A (Homo sapiens), P06280; purified enzyme, 4-MU-alpha-Gal fluorescence, pH 4.5; activity change, negative = inhibition, % at 105 µM; 230,000 tested, under 10 active; AID 1467, 2008; inconclusive = small, poorly fitted or top-dose-only inhibition, or a rising curve; inactive = flat fitted curve, though single readings scatter; no compound was filed as active;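 further: 0% = full activity with enzyme and -100% = basal without enzyme; dose as in the result columns while the protocol names 77 µM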
Target sequence (P06280 whole entry, looked up): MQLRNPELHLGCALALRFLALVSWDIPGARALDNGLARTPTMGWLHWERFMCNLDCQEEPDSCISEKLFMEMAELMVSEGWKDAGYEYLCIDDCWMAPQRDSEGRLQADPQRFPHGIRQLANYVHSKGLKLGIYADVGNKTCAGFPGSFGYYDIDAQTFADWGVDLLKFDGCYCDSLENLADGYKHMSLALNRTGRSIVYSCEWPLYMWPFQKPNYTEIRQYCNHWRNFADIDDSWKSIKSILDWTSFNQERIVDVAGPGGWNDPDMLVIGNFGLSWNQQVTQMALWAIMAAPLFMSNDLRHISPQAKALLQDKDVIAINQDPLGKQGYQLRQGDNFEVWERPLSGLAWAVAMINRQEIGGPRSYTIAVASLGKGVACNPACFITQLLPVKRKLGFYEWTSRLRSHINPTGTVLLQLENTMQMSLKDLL
miR-21 reporter = qHTS Assay for Modulators of miRNAs and/orActivators of miR-21; HeLa miR-21 FLuc reporter, luciferase, 48 h; 340,000 tested, under 10 active; Potency, µM (series often up to 38.3 µM), for the others: top-dose reporter change, positive = more light; active = well fitted rising curve with a large enough effect; inconclusive = small, poorly fitted or top-dose-only effect; inactive = no such curve, though single readings can be large or run the other way;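 further: % of control where 0% means no effect; miR-21 action dims this reporter so a rising signal means less miR-21 action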
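Using DMEM plus 10% FBS, HeLa miR-21-FLuc cells are incubated with test compounds (final up to about 40uM) for 48 hours; firefly luciferase signal is then imaged following reagent-mediated lysis.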
Numbers without * were called inactive; ? = inconclusive; · = no result given; & = joins results of further samples. The list is partial; count on the stated rates, not on these rows.

Below each compound – miR-21 reporter	GLA inh pH 4.5	Rango dissoc inh	Rango complex inh
- Oc1cccc(NC(=S)N=Nc2c(O)[nH]c3ccc(Br)cc23)c1
    5%	-4	-4%	6.1%
- CCOc1ccc(NC(=O)NC23CC4CC(CC(C4)C2)C3)cc1
    -20%	0	12%	-0.3%
- O=C(c1ccc(Cl)cc1)C1CCCN(Cc2cccn2-c2ccccn2)C1 (stereo unspecified)
    25%	-2	13%	0.3%
- CCNC(=O)c1ccccc1NC(=O)c1cccc(S(=O)(=O)N2CCOCC2)c1
    -17%	-7	5%	0.8%
- CCc1nnc(NC(=O)c2cc(S(=O)(=O)N3CCN(CC)CC3)ccc2Cl)s1
    ·	·	-3%	0.0%
- C[C@@H]1CC[C@@]2(O[C@@H](CCO)C[C@H](O)[C@H]2O)O1
    ·	·	-2%	1.1%
- CN(C)C(=O)C12CCC(C)(C(=O)C1Br)C2(C)C (stereo unspecified)
    1%	0	1%	0.8%
- Cc1ccccc1NC(=S)NC(=O)Cc1ccc(Cl)cc1
    -5%	·	0%	-2.2%
- Cc1nn(-c2ccccn2)c2c1C(c1ccsc1)C1=C(CCCC1=O)N2 (stereo unspecified)
    -1%	-2	13%	5.2%
- CCCn1c(=O)c2[nH]c(C3CCCC3)nc2n(CCC)c1=O
    1%	-5&-2&-2&-4	7%	5.0%
- CC(=O)c1cccc(NC(=O)CN2C(=O)c3ccccc3C2=O)c1
    -3%	·	16%	-3.6%
- C/C(Cl)=C/CN1C(=O)C2C3C=CC(C3)C2C1=O (stereo unspecified)
    1%	-5	22%	0.0%
- Cc1cc(C)nc(SCc2ccc(C(=O)O)o2)n1
    -3%	1	-11%	-2.5%
- Cc1ccc(SCCN2CCC(C)CCC2=O)cc1 (stereo unspecified)
    -59%	·	?	-3.6%
- CCOc1ccc(NC(=O)N(C2CCCCC2)C2CCN(C(C)=O)CC2)cc1
    ·	·	-6%	-1.9%
- CCC(NC(=O)c1cc(COc2ccc(OC)cc2Cl)on1)c1ccncc1 (stereo unspecified)
    -14%	·	17%	0.0%
- O=C(Cc1ccccc1)N/N=C/c1cc(Br)cc(Br)c1O
    0%	·	?	?
- COCCCNC(=O)c1cccc(C(=O)NCCCOC)c1
    0%	2	5%	-1.7%
- Cc1ccc(C2=[N+]([O-])C3(CCCCC/C3=N\NC(N)=S)N(O)C2(C)C)o1 (stereo unspecified)
    -3%	-4	·	·
- Cc1cc(C)c2c(N)c(C(=O)c3cccc(Cl)c3)sc2n1
    -4%	-5	?	?
- Cc1cc(N2CCCC2)nc(SCC(=O)c2ccccc2)n1
    -11%	3	-15%	-2.8%
- NC(=O)C(=O)N/N=C/c1c[nH]c2ccc(Br)cc12
    0%	-3	-4%	-0.6%
- COc1ccc(C(c2nnnn2CC2CCCO2)N2CCN(c3cccc(C)c3C)CC2)cc1 (stereo unspecified)
    8%	-1	3%	0.3%
- N#CC(C#N)=NNc1ccc(S(=O)(=O)N2CCCC2)cc1
    -1%	-3	-5%	0.1%
- CN(C(=O)COC(=O)CN1C(=O)c2ccccc2C1=O)c1c(N)n(Cc2ccccc2)c(=O)[nH]c1=O
    ·	·	15%	5.2%
- Cc1cccc(C)c1NC(=O)C(=O)NCC1CCCN1S(=O)(=O)c1ccccc1 (stereo unspecified)
    ·	·	0%	0.5%
- CCOc1ccc(-c2nc(N)ncc2Oc2cccc(OC)c2)c(O)c1
    17%	-6	0%	-1.6%
- CCCOc1ccc(C(=O)NNC(=S)NC(=O)c2cc(-c3ccccc3)nc3ccccc23)cc1
    0%	5	12%	2.3%
- N/C(=N\c1nc(CSc2ccccn2)cc(=O)[nH]1)Nc1ccc(Cl)cc1Cl
    0%	-4	5%	3.7%
- C=CCSC1=C(C#N)C(c2ccc(OCC)cc2)CC(=O)N1 (stereo unspecified)
    -2%	-3	10%	-2.8%
- Cc1ccc(OC(=O)C2CSC3(C)CCC(=O)N23)c(Br)c1 (stereo unspecified)
    ·	·	0%	-3.4%
- Cc1onc(-c2ccccc2)c1C(=O)Nc1ccc2c(c1)OCO2
    1%	2	2%	0.7%
- Oc1c(C(Nc2nccs2)c2ccc(C(F)(F)F)cc2)ccc2cccnc12 (stereo unspecified)
    16%	-10	-11%	3.8%
- CCn1c(=O)cc(OCC(=O)NCCCN2CC(C)CC(C)C2)c2ccccc21 (stereo unspecified)
    3%	-4	-2%	?
- COc1ccc(-c2oc3cccnc3c2C#CCO)cc1
    -1%	·	-28%	?
- Cc1cc2n(n1)SC(Nc1cc(Cl)ccc1Cl)N2 (stereo unspecified)
    -25%	-9	-2%	-0.3%
- COc1ccc(C2C(C(C)=O)=C(O)C(=O)N2CCN(C)C)cc1OC (stereo unspecified)
    -4%	-6	·	·
- Cc1ccc(NC(=O)c2ccc3nsnc3c2)c(C)c1
    -40%	·	-8%	0.8%
- Cc1cc([N+](=O)[O-])nn1CCCC(=O)N1CCN(c2ccccc2)CC1
    -4%	6	-6%	-4.2%
- O=C(CN1CCCc2ccccc21)N/N=C/c1ccc(O)cc1O
    -29%	-10	-17%	5.0%
- COc1ccccc1/C=N/NC(=O)CNC(=O)c1ccccc1
    -11%	1	5%	2.5%
- COc1ccc2nc(N3CCN(C(=O)c4ccc5ncsc5c4)CC3)sc2c1
    ·	·	-24%	?
- Cc1nn(CC2CC2)c(=O)n1-c1ccccc1
    -5%	0	0%	-0.4%
- CN1CCN(NC(=O)c2cc(S(=O)(=O)N3CCOCC3)c(Cl)cc2Cl)CC1
    -7%	4	-5%	-0.6%
- O=C1C(Cl)=C(NCC2CCCO2)C(=O)N1c1ccccc1 (stereo unspecified)
    -1%	2	-3%	0.1%
- Cc1cc(=O)oc2c3c(cc(OCC(=O)NCC(=O)O)c12)OC(C)(C)CC3
    -1%	·	-1%	-1.3%
- CCSc1nnc(N(CCC#N)CCC#N)s1
    -9%	3	20%	0.4%
- Cc1nnc(NC(=O)CCSc2ccc(Cl)cc2)s1
    3%	4	-7%	0.0%
- O=C(C[C@H]1C/C=C\CC[C@@H](Cc2ccc(F)cc2)C(=O)O[C@@H](c2ccccc2)CNC1=O)N[C@H](CO)Cc1ccccc1
    ·	·	6%	0.7%
- O=C1CCCCCC1C1(O)C(=O)Nc2ccc(Br)cc21 (stereo unspecified)
    -7%	10	-1%	1.5%
- CC(C)N(C(=O)CSc1nnc(NC(=O)c2cccs2)s1)C(C)C
    0%	-1	1%	-1.2%
- CCOC(=O)c1sc(NC(=S)NC(=O)c2ccccc2)nc1C
    -41%	-3	-2%	-1.2%
- C=CCN(CC=C)C(=O)Nc1cc(OC)ccc1OC
    3%	-4	-11%	0.4%
- COCCCN=CC1=C(O)CC(c2ccccc2)CC1=O (stereo unspecified)
    0%	·	-4%	-1.7%
- COc1cc(F)c(S(=O)(=O)N2CCOc3ccccc32)cc1OC
    -5%	·	0%	-2.3%
- O=C(CN1C(=O)NC2(CCCC2)C1=O)Nc1cc(Cl)ccc1Oc1ccccc1
    ·	·	?	1.8%
- CCCn1c(C)cc(C(=O)COC(=O)c2c(C)nn(-c3ccccc3)c2C)c1C
    -3%	-7	-6%	2.3%
- CCOC(=O)c1cc(NC(=O)c2cccnc2)ccn1
    ·	·	-4%	0.8%
- O=C(C1CCN(c2nc(-c3ccccc3)nc3c2CCC3)CC1)N1CCC(O)CC1
    2%	·	2%	-0.1%
- Cc1ccc(CNC(=O)c2cn(C3CCCCC3)c(=O)c3c2c2ccccc2n3C)o1
    7%	1	?	?

Next section.
Below each compound – miR-21 reporter	GLA inh pH 4.5	Rango dissoc inh	Rango complex inh
- COc1ccc(OCc2nnc3n2N=C(c2ccccc2)C(CC(=O)O)S3)cc1 (stereo unspecified)
    -2%	·	6%	-4.9%
- Cc1nc2c(=O)n(-c3cccc(C(F)(F)F)c3)nc(C)c2s1
    -10%	1	-5%	?
- CCOc1c(Nc2ccccc2O)c(=O)c1=O
    -5%	-7	-7%	5.2%
- CC(=O)Nc1cccc(C(=O)OC(C)C(=O)Nc2ccc(S(=O)(=O)N3CCCC3)cc2)c1 (stereo unspecified)
    ·	·	-1%	-3.2%
- O=C(CSc1nccc(=O)[nH]1)N1c2ccccc2CCc2ccccc21
    -4%	-4	0%	5.4%
- C/C(Cl)=C/Cn1c(N2CCCC2)nc2c1c(=O)[nH]c(=O)n2C
    -3%	·	4%	0.2%
- CCOC(=O)CSc1nc(N(C)C)nc(N(C)C#N)n1
    -6%	-2	-6%	-0.6%
- O=C(COc1ccccc1Cl)Nc1nc(-c2ccncc2)cs1
    ·	·	20%	-1.9%
- c1coc(CNc2ncnc3nc[nH]c23)c1
    -18%	3&5&2&4	6%	-0.9%
- CC(C)C(NC(=O)c1ccc(F)cc1)C(=O)NCC1CCCO1 (stereo unspecified)
    -1%	1	2%	-1.4%
- CCOc1cnn(-c2cc(Oc3ccc(C)cc3)ncn2)c(=O)c1Cl
    -11%	-6	6%	0.4%
- CCC1(c2ccccc2)C(=O)N=C(N)N(C#N)C1=O (stereo unspecified)
    ·	·	1%	-1.6%
- O=C(O)c1cc(S(=O)(=O)NC2CCCc3ccccc32)ccc1O (stereo unspecified)
    0%	·	13%	7.2%
- Cc1nc(CSc2ccc(Br)cc2)cs1
    -35%	·	-17%	1.4%
- CCc1ccccc1NC(=O)CN1CCN(C(=O)c2ccc(OCc3cn4ccccc4n3)cc2)CC1
    ·	·	10%	0.2%

Part of the list above, with the structure last.
miR-21 reporter | GLA inh pH 4.5 | Rango dissoc inh | Rango complex inh | structure
-2% | · | 6% | -4.9% | COc1ccc(OCc2nnc3n2N=C(c2ccccc2)C(CC(=O)O)S3)cc1 (stereo unspecified)
-10% | 1 | -5% | ? | Cc1nc2c(=O)n(-c3cccc(C(F)(F)F)c3)nc(C)c2s1

The results go on.
Below each compound – miR-21 reporter	GLA inh pH 4.5	Rango dissoc inh	Rango complex inh
- Cc1ccc(O)c(Nc2ncnc3ccccc23)c1
    4%	·	-18%	3.7%
- Cc1cc(NS(=O)(=O)c2ccc(NC(=O)Cc3ccc([N+](=O)[O-])cc3)cc2)nc(C)n1
    ·	·	-2%	-0.4%
- CC(C)(C)OC(=O)NC1CC2CCCC(C1)N2Cc1ccccc1 (stereo unspecified)
    2%	·	-4%	5.2%
- O=C(C1CCN(S(=O)(=O)c2cccs2)CC1)N1CCN(Cc2ccccc2)CC1
    -1%	10	-15%	?
- CCOc1ccc(CCNC(=O)c2ccc(CS(=O)Cc3ccc(Cl)cc3)o2)cc1 (stereo unspecified)
    1%&9%	·	-6%	-4.0%
- Cc1nn2c(-c3ccccc3)ccnc2c1Br
    -23%	·	-13%	?
- CCOC(=O)C1CCN(C(=O)COc2cc(C)c(Br)c(C)c2)CC1
    -12%	-7	3%	3.2%
- O=S(=O)(c1ccc(-c2n[nH]c(=S)o2)cc1)N1CCCCC1
    -4%	·	28%	-3.9%
- O=C(Nc1ccncc1)Nc1ccc(Cl)cc1
    -27%	·	-2%	-0.3%
- O=[N+]([O-])c1ccc2c(c1)C=C1CCCCC1(N1CCCCC1)O2 (stereo unspecified)
    -1%	4	-2%	-1.6%
- COc1ccc(C(=O)Nc2c(N)nc(SCC(=O)NCC3CCCO3)[nH]c2=O)cc1OC (stereo unspecified)
    -1%	·	-4%	0.0%
- COc1ccc(C(CNC(=O)c2oc3cc(C)c(C)cc3c2C)N2CCCCC2)cc1 (stereo unspecified)
    1%&8%	·	-4%	-0.7%
- Cc1ccc(CCNC(=O)C2CC(=O)N(CCc3ccccc3)C2)cc1 (stereo unspecified)
    0%&1%	·	20%	2.6%
- COc1cccc(Nc2nnc(SCc3cc([N+](=O)[O-])cc4c3OCOC4)s2)c1
    -1%	-12	5%	1.6%

High-throughput results (PubChem BioAssay)
